Screening data as filed in PubChem BioAssay.
CapD inh: CapD enzyme inhibition; purified CapD enzyme, fluorescence intensity read-out; active compounds read low; some hits fall short of the stated cut; z-score (no concentration beside the values); 0.23% of 140,000 active; AID 492967;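 active means z-score under -4 in either of two replicates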;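 further: stock transfer was 100 nL into about 40 µL; score is relative to mean and spread of the plate; one replicate is shown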
AID504770: E. coli YBA685 growth inhibition, screen for V. cholerae RctB inhibitors | E. coli YBA685 rctB-dependent plasmid, OD600 growth, 3 h; active compounds read low | z-score (no concentration beside the values) | 0.27% of 130,000 active | AID 504770;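 active means z-score under -2 on both plates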;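 further: wells of about 30 µL received 100 nL stock; score is relative to mean and SD of the test wells; the first replicate is given; strong numbers were not always called active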
The depositor's hits bear a star; / = not tested or not shown; & = joins results of further samples. Some of the compounds tested; count on the stated rates, not on these rows.

SMILES	CapD inh	AID504770
COc1ccc(N2C3=[N+](CC2(O)c2ccccc2)C(c2ccccc2)CCC3)cc1 (configuration not stated)	0.07	/
COc1ccc(/C=C2\SC(=S)N(CCCCCC(=O)Nc3ccccc3C(=O)O)C2=O)cc1	-0.23	/
CN1C(=O)c2ccccc2C(C(=O)NC2CC2)C1c1cn(C)c2ccccc12 (configuration not stated)	0.45	0.55
Cc1ccc(NC(=O)c2cccn(Cc3cccc(C(F)(F)F)c3)c2=O)cc1C	-1.6	/
CC(=O)NC1=NC(=O)/C(=C/c2ccc(-c3cc(Cl)ccc3[N+](=O)[O-])o2)S1	-0.065	/
CCSc1nnc(-c2c[nH]c3ccccc23)n1-c1ccc(OC)cc1	-0.76	-0.3
CC(=O)N(C)Cc1nc2ccccc2[nH]1	0.51	-0.8
COc1cc(C2/C(=C(\O)c3ccccc3)C(=O)C(=O)N2c2cccc(Cl)c2)ccc1O (configuration not stated)	-0.93	/
Cc1cccc(OCC(=O)Nc2cccc(-c3nc4ncccc4o3)c2)c1	7.2	-0.25
CCCN1C(=O)/C(=c2\sc3nc(-c4ccccc4)nn3c2=O)c2ccccc21	-0.22	-0.4
COc1ccc(C2CC(=O)C3=C(C2)Nc2ccccc2NC3c2ccccc2[N+](=O)[O-])cc1OC (configuration not stated)	-1.8	/
CN(CC(=O)N1CCCC1=O)Cc1ccccc1	/	-0.55
O=C1CCCc2nc(N3CCN(c4ccccc4)CC3)ncc21	/	2.4
Cc1sc2ncn(CC(=O)N3CCC(C)CC3)c(=O)c2c1C	/	-0.4
Clc1ccc(CCC(Cn2ccnc2)Sc2c(Cl)cccc2Cl)cc1 (configuration not stated)	1.7	/

Exported field by field: entries from further up
> COc1ccc(C2CC(=O)C3=C(C2)Nc2ccccc2NC3c2ccccc2[N+](=O)[O-])cc1OC (configuration not stated)
  CapD inh: -1.8
  AID504770: /

> CN(CC(=O)N1CCCC1=O)Cc1ccccc1
  CapD inh: /
  AID504770: -0.55

> O=C1CCCc2nc(N3CCN(c4ccccc4)CC3)ncc21
  CapD inh: /
  AID504770: 2.4

> Cc1sc2ncn(CC(=O)N3CCC(C)CC3)c(=O)c2c1C
  CapD inh: /
  AID504770: -0.4

(cont.)
SMILES	CapD inh	AID504770
C=CCN(CC=C)C(=O)C1CCC(C(=O)N(CC=C)CC=C)CC1 (configuration not stated)	0.37	0.15
Cc1cc(N2CCC(C)CC2)nc2ccc(NC(=O)c3ccc4c(c3)OCO4)cc12	0.26	/
CCOC(=O)c1c(C)n(-c2ccccc2)c2c1cc(OC(=O)c1ccc(F)cc1)c1ccccc12	-0.21	/
O=C(COc1ccccc1)NCCc1nc2ccccc2n1Cc1ccccc1	-8.1*	-0.7
CC(C)CN=CC1=C(O)c2ccccc2C1=O	-1.1	-0.85
CCNC(=O)CSc1ccc2ccccc2c1	/	0.2
CCN1CCCC1CNC(=O)C(NC(=O)C1CCC(C)CC1)C(C)C (configuration not stated)	-0.45	1.1
Cc1cc(C2=CSC3=NCCN23)ccc1Cl	0.8	/
CS(=O)(=O)c1ccccc1C(=O)Nc1nccs1	/	-0.9
CC1(N(O)C=C2C=CC(=O)C=C2)CCCCC1=O (configuration not stated)	-1	2.8
COc1ccc(C=NC23CC4CC(CC(C4)C2)C3)cc1	0.82	-0.5
OCC1(CO)COC2(CCCCC2)N1	0.31	-0.35
CC(=O)NC1=NC(=O)/C(=C/c2ccc(-c3ccccc3C(=O)O)o2)S1	-2.9	/
O=C(CSc1nn(-c2ccc(F)cc2)c(=S)s1)N1CCN(C(=O)c2ccco2)CC1	/	-1.3
CCCCn1c2ccc(F)cc2c2nnc(NN)nc21	-0.68	-0.4
Cc1c(-c2ccccc2)sc2nc[nH]c(=O)c12	0.5	/
CCN(CC)c1ccc2cc(C(N)=O)c(=Nc3ccc(C(F)(F)F)cc3)oc2c1	-0.37	/
N#Cc1c(-c2ccc(Cl)cc2Cl)c(C#N)c(=O)n(N)c1N	12	-0.55
O=C(c1cc2c(s1)CCCC2)N1CCN(c2ccccc2)CC1	0.93	0.3
Cc1csc(C(=O)NNC(=O)CCCCCNC(=O)OCc2ccccc2)c1Cl	0.39	/
O=C(OCN1C(=O)c2ccccc2C1=O)c1ccc2c(c1)OCCO2	/	0.7
N#Cc1cccc(-n2cccc2)c1	0.48	/
Fc1cccc(-c2nnc3ccc4ccccc4n23)c1	-0.28	/
Cn1cccc1/C=C1\SC(=S)NC1=O	-4.3*	0.2
Cc1ccc(N=Cc2c(O)n(-c3ccccc3)c(=S)n(-c3ccccc3)c2=O)cc1C	-0.43	/
O=C(O)/C=C\C(=O)N1CCN(C(=O)Cc2ccc(F)c(F)c2)CC1	-0.81	/
CC1CCCN(CC(O)COCCC23CC4CC(CC(C4)C2)C3)C1 (configuration not stated)	-0.55	1.1
O=S(=O)(c1cc(Cl)sc1Cl)N1CCSCC1	0.36	0.5
Cc1ccc(-n2cnnc2)cc1	-0.33	0.95
NC(=O)COC(=O)/C=C/c1cccs1	-2.2	0.2
COc1cccc(-c2nc(-c3ccccc3O)[nH]c2-c2cccc(OC)c2)c1	42	/
O=C(Cn1cnc2ccc(Cl)cc2c1=O)c1ccc[nH]1	/	-0.65
Cc1oc(C(C)(C)C)cc1C(=O)Nc1cccc(C(=O)O)c1	0.96	0.4
Cc1cccc(C)c1NC(=O)NC1(C(=O)N2CCCCC2)CCCCC1	/	0.5
O=C(Nc1ccc(S(=O)(=O)N2CCCCC2)cc1)C(F)(F)F	/	-0.1
CC(=O)Nc1ccc(NC(=O)CN2CC=C(c3ccccc3)CC2)cc1	/	2.5
O=C(OCCCN=C1NS(=O)(=O)c2ccccc21)C(c1ccccc1)N1CCCCC1 (configuration not stated)	0.38	/
Cc1cc2cc(NC(=O)c3cccc(C(F)(F)F)c3)ccc2[nH]1	-0.57	/
Cc1ccc(Sc2ccc(C(=O)O)cc2[N+](=O)[O-])cc1	-0.99	/
CCOc1ccc(C2C(C(=O)Nc3cccc(C(F)(F)F)c3)=C(C)NC3=C2C(=O)CCC3)cc1 (configuration not stated)	32	/
O=C(CSc1nc2ccccc2[nH]1)Nc1ccc(OC(F)(F)F)cc1	-0.11	-0.6
CSc1cc(C(C)(C)C)nn1C(=O)Nc1ccccc1	-0.9	-1.4
Cc1csc(NCc2cccnc2)[n+]1C	0.49	-0.2
CCOC(=O)C1=C(N)n2c(s/c(=C\c3cc(Br)ccc3F)c2=O)=C(C#N)C1c1cc(Br)ccc1F (configuration not stated)	-0.4	/
CCOc1ccc(CCNS(=O)(=O)c2ccc3c(c2)CCN3C(=O)C2CC2)cc1OCC	13	-0.3
Cc1ccc(CC2C(=O)N(c3cccc(C(F)(F)F)c3)C(=O)C2C)cc1 (configuration not stated)	0.19	1.1
CN(C)C1(CNC(=S)NCc2ccccc2)CCCCC1	/	-0.8
CCn1nnc2cc(C(=O)Nc3ccc(S(=O)(=O)C(F)F)cc3)ccc21	/	-0.4
O=S(=O)(c1ccccc1)N1CCN(CC2CC=CCC2)CC1 (configuration not stated)	0.2	-1.1
CN(CC(=O)NC(=O)NC1CCCCC1)Cc1nc2ccccc2c(=O)[nH]1	/	0.25
O=C(CC12CC3CC(CC(Br)(C3)C1)C2)NC1CCCC1	0.52	0.75
Cc1cc(C)c2[nH]c(=O)c(CN(CCCO)C3(c4nnnn4C4CCCC4)CCCC3)cc2c1	/	0.05
CCCN(S(=O)(=O)c1ccccc1F)S(=O)(=O)c1ccccc1Br	/	-1.1
COc1ccc(C(=O)N2CCSC2=S)cc1	-3.4	0.1
CN(Cc1ccco1)C(=O)Cn1nc(-c2ccc(Cl)cc2)ccc1=O	1.9	-0.35
Cc1sc2ncnc(Sc3nnc(-c4cccs4)n3CC3CCCO3)c2c1C (configuration not stated)	/	0.05
O=C(CSCCc1ccccn1)Nc1nccs1	-0.37	1.7
CC1(C)OC(=O)C(=Cc2cc(Br)c(O)c(Br)c2)C(=O)O1	-2	-0.7
CCOc1cc(C2C(C#N)=C(N)Oc3cc(C)oc(=O)c32)cc([N+](=O)[O-])c1OC(=O)N1CCOCC1 (configuration not stated)	-0.56	/
CSc1ccc(/C=N/n2c(=O)oc3ccccc3c2=O)cc1	6.2	0.45
Next results follow:
SMILES	CapD inh	AID504770
Cc1cccc(C(=O)N2CCN(c3cc(C)c(C#N)c4nc5ccccc5n34)CC2)c1	-0.065	/
CN(C)S(=O)(=O)c1cccc(COC(=O)C2=COCCO2)c1	/	0.2
CC(=O)O[C@@H]1CC2C(C)(C)C(=O)C=C[C@]2(C)C2CC[C@@]3(C)[C@H](c4ccoc4)OC(=O)[C@H]4O[C@]43[C@@]21C (some centres not stated)	-0.95	0.25
O=C(Cc1ccccc1)NCc1nnc(SCC(=O)N2N=C(c3cccs3)CC2c2ccc(F)cc2)n1Cc1ccccc1 (configuration not stated)	2.5	/
Cc1ccc(CCOC(=O)N2CCN(CCN(C)C)CC2)cc1	-0.9	/
N#CC1(CN2C(=O)C3(OCCO3)c3ccccc32)CC=CCC1 (configuration not stated)	0.43	/
CCOC(=O)[C@@H]1CSC2C3SC[C@@H](C(=O)OCC)N3CCN21 (some centres not stated)	0.28	0.15
CC(=O)N=c1nc(-c2ccccc2)n(-c2ccccc2)s1	-1.4	-0.85
COC(=O)c1ccc(CSc2nnc(/C=C/c3ccccc3)o2)cc1	0.9	/
CCOCCOC(=O)C1=C(C)NC(=O)CC1c1cccc(Cl)c1Cl (configuration not stated)	0.39	/
CN1CCC(N(C(=O)c2cccc(C(F)(F)F)c2)C2CC2)CC1	-0.36	/
COc1ccc(N=C2NC(=O)/C(=C\c3ccc(OCC(C)C)cc3)S2)cc1	-0.19	/
CC(C)(C)C(=O)OC/C(N)=N/OC(=O)c1ccccc1	-0.21	/
C=CCN1C(=O)/C(=C\c2ccc(Oc3ccc([N+](=O)[O-])cc3[N+](=O)[O-])c(OC)c2)SC1=S	0.29	/
CC1SC2(C(=O)Nc3ccccc32)N(c2cccc(F)c2)C1=O (configuration not stated)	-0.25	/
CN1C(=O)C2(C(C#N)=C(N)Oc3cc(O)ccc32)c2ccccc21 (configuration not stated)	-0.25	-0.75
CN(CCc1ccccn1)C(=S)NCc1ccccc1	/	0.65
O=S1(=O)C=C(N2CCCC2)c2ccccc21	/	0.1
CN1CCN(C(=O)C2CCCCC2C(=O)O)CC1 (configuration not stated)	/	-0.15
COc1ccc(OCC(O)CNC(=S)Nc2ccc3c(c2)OCO3)cc1 (configuration not stated)	-0.005	0.15
O=C1C2CC=C(Cl)CC2C(=O)N1c1ncn[nH]1 (configuration not stated)	0.42	-0.1
Cc1ccc(-n2cc(-c3ccccc3)c3c(NCCCN4CCOCC4)ncnc32)cc1Cl	0.41	/
Clc1cccc(CN2CCN(Cc3ccccc3)CC2)n1	-0.46	/
Cc1ccc(CC(=O)NCC(c2ccco2)N(C)C)cc1C (configuration not stated)	/	-0.15
Cc1[nH]c(=O)[nH]c(=O)c1S(=O)(=O)NCC1CCCO1 (configuration not stated)	-1.3	1.4
CCc1ccc(OCc2nnc(SCCC#N)n2C(C)c2ccccc2)cc1 (configuration not stated)	/	0.2
CN(C)c1ccc(-c2nc(-c3ccccc3)c(-c3ccc(O)cc3)[nH]2)cc1	103	2.4
O=C(COC(=O)Cc1ccsc1)Nc1ccc(Cl)c(C(F)(F)F)c1	0.04	-0.2
COc1ccc(C=C2C(=O)NC(=S)NC2=O)cc1	-1.4	-1&-1.4
FC(F)(F)c1cnc(-c2cnc3c(-c4cccs4)cnn3c2)c(Cl)c1	0.23	/

Structural class: the compounds so far with a tert-butyl group.
SMILES	CapD inh	AID504770
Cc1oc(C(C)(C)C)cc1C(=O)Nc1cccc(C(=O)O)c1	0.96	0.4
CSc1cc(C(C)(C)C)nn1C(=O)Nc1ccccc1	-0.9	-1.4
CC(C)(C)C(=O)OC/C(N)=N/OC(=O)c1ccccc1	-0.21	/

(next part)
SMILES	CapD inh	AID504770
O=S(=O)(c1ccccc1)c1nnn2c1nc(NCc1ccco1)c1sccc12	7.9	0.05
CCCCCC(=O)N1c2ccc(C)cc2C2CN(C)CCC21 (configuration not stated)	10	/
CCn1c(/N=C/c2ccc(OC)cc2O)nc2ccccc21	/	0.25
Oc1ccccc1OCc1ccccc1	0.34	-1.2
O=C(Nc1ccncc1)c1cnc2sccn2c1=O	/	1.2
CC(C)c1cc(NCCN(C)C)n2c(nc3ccccc32)c1C#N	33	0.05
Cc1cccn2cc(-c3cccc(NC(=O)CCC(=O)O)c3)nc12	53	-0.25
CCOC(=O)c1c(C)n(-c2ccccc2)c2ccc(OC(=O)C34CC5CC(CC(C5)C3)C4)cc12	-0.11	/
O=c1cc(-c2ccc(O)cc2)oc2ccc(O)cc12	2.6	2
COc1ccc(Cl)cc1S(=O)(=O)NCCc1ccc(F)cc1	-0.54	/
Cc1nn(Cc2c(Cl)cccc2Cl)c(C)c1CNCC(c1ccco1)N1CCCC1 (configuration not stated)	/	-0.25
CCCCN(CC)C(=O)C1c2ccccc2Oc2ccccc21	0.34	-0.9
CCOc1cc(C2Nc3ccccc3NC3=C2C(=O)CC(c2ccccc2)C3)cc([N+](=O)[O-])c1O (configuration not stated)	-2	/
Cc1ccccc1NC(=O)N1CCCC(C(N)=O)C1 (configuration not stated)	-1.1	0.95
COc1ccc(CCNS(=O)(=O)c2ccc(Cl)c(Cl)c2Cl)cc1OC	-0.11	/
COc1ccccc1NC(=O)Cc1cccs1	-0.07	-0.45
CCO/C=C(\C#N)S(=O)(=O)c1ccc(C)cc1	-0.41	/
